RVFV N-RNA inh – inhibitors of Rift Valley Fever Virus nucleocapsid-RNA interaction. P21700. RVFV N-RNA binding, fluorescence polarization; active compounds read low. % bound, % (test concentration not listed). 0.1% of 20,000 active;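 active means between 0 and 58% in either replicate with normal brightness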;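 further: 100 nL library stock added to about 12 µL; 100% = protein and probe without compound and 0% = probe alone; numbers are from one replicate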
Target sequence (P21700 whole entry, looked up): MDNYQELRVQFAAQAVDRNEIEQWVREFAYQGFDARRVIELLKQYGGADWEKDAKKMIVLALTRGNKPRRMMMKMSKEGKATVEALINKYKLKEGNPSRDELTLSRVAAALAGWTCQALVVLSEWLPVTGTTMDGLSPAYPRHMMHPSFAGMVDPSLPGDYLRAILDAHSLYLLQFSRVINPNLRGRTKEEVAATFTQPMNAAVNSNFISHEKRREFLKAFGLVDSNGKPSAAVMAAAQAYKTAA
The depositor's hits bear a star; & = joins results of further samples. An excerpt; the hit share may differ from the screen's.

nr	molecule	RVFV N-RNA inh
1	COC(=O)C1CCN(C(c2ccc(OC)cc2)c2sc3ncnn3c2O)CC1 (configuration not stated)	92
2	CC(=O)Nc1ccccc1NC(=O)C(C)C	91
3	O=C(NC1CC(=O)N(c2ccccc2)C1)N1CCN(C(=O)c2ccco2)CC1 (configuration not stated)	94
4	CCC1(C)Cc2ccccc2-c2c1c(=O)n(Cc1ccccc1)c1nnnn21 (configuration not stated)	80
5	Cc1oc2c(c1C(=O)Nc1ccc(I)cc1)CCCC2	97
6	O=c1nc(SCc2ccccc2)c2c(n1Cc1cccnc1)CCC2	89
7	COc1ccc(C2C(C(=O)O)=C(C)OC2c2ccccc2)cc1 (configuration not stated)	84
8	CC[C@@]1(O)C[C@H](O[C@H]2C[C@H](N(C)C)[C@H](O[C@H]3C[C@H](O)[C@H](O[C@H]4CCC(=O)[C@H](C)O4)[C@H](C)O3)[C@H](C)O2)c2c(cc3c(c2O)C(=O)c2c(O)cccc2C3=O)[C@H]1C(=O)OC	92
9	O=C(O)CC(C(=O)O)N1C(=O)/C(=C\c2ccco2)SC1=S (configuration not stated)	89
10	CC(=O)N1CCN=C1SCc1ccc(C(F)(F)F)cc1	95
11	N/C(=N\OC(=O)C1CCCS1)c1ccc(C(F)(F)F)cc1 (configuration not stated)	96
12	CC1(C)CN=C(NCc2ccccc2Cl)S1	92
13	COC(=O)c1c(C)c(C)c(C(=O)OC)c(C)c1C	93
14	COc1ccc(C(=O)Nc2ccc(N3CCN(c4ncccc4C(F)(F)F)CC3)nc2)cc1	105
15	S=C(NCC1CCCO1)N1CCN(Cc2ccccc2Cl)CC1 (configuration not stated)	99
16	CC(=O)Nc1c2c(nn1-c1ccccc1)CS(=O)(=O)C2	99
17	Cn1c(NC(=O)/C=C/c2ccccc2)cc(=O)n(C)c1=O	94
18	CCCCN(CC)C(=O)c1ccccc1Oc1ccccc1	93
19	CS(=O)(=O)c1nc2ccccc2n1Cc1cccc2ccccc12	94
20	CC(C)Oc1cccc(OCCn2cnc3ccccc32)c1	105
21	CCCn1ccc2c(OCc3ccccn3)cccc2c1=O	95
22	C=CCN1CCc2c(cc(O)c(O)c2Br)[C@@H](c2ccccc2)C1	96
23	O=C(CC12CC3CC(CC(C3)C1)C2)NCC(=O)N1CCCC1	91
24	O=C(COc1ccccc1)NN1C(=O)CSC1=S	103
25	CC(C)c1ccc(OCC(=O)Nc2ccc(N3CCN(C)CC3)cc2)cc1	94
26	CN(C(=O)c1ccco1)c1ccccc1	103
27	CCOc1cc(C(=O)NC(C)(C)CC)cc(OCC)c1OCC	88
28	CCOC(=O)C1CCCN(C(=O)c2ccc(Cl)cc2)C1 (configuration not stated)	95
29	COc1cc(/C=N/N=C2\NC(=O)C(Cc3ccc(Cl)cc3)S2)ccc1O (configuration not stated)	97
30	CCOC(=O)c1oc2nc(-c3ccccc3)cc(C)c2c1NC(=O)Nc1ccc(Cl)cc1	96
31	COc1ccccc1N1CCN(CCCC#N)CC1	98
32	CSc1nccc(-c2ccc(Cl)cc2)n1	92
33	CC(C)=NNc1nc(Cl)c(C#N)c(Cl)c1Cl	101
34	Cc1ccccc1CN1C(=O)C(O)(CC(=O)/C=C/c2ccco2)c2ccccc21 (configuration not stated)	88
35	O=C(Nc1cccc(C(=O)N2CCN(C(c3ccccc3)c3ccccc3)CC2)c1)c1ccco1	99
36	Nc1ccc(C(=O)O)c(O)c1	93
37	CC(C)Oc1ccccc1OCCCCn1cncn1	91
38	C[C@]12CCC(=O)C=C1CC[C@@H]1[C@@H]2[C@@H](O)C[C@@]2(C)[C@H]1CC[C@]2(O)C(=O)CO	91&101&92
39	CN1CCC(=NNC(N)=S)CC1	94
40	NC12CCc3c(no[n+]3[O-])C1(O)CC(c1ccccc1)=[N+]2[O-] (configuration not stated)	100
41	O=C(O)COCC(=O)N1CCN(Cc2ccc3c(c2)OCO3)CC1	96
42	Nc1cc(=O)[nH]c(=O)n1Cc1ccncc1	96
43	Cc1csc2c(=O)nc3c(C#N)n[nH]n3c12	92
44	COc1cc(OC)c(C2=NOC(C(=O)Nc3cc(C)nn3-c3ccccc3)C2)cc1Cl (configuration not stated)	98
45	CC1CCCCN1C(=O)c1cc2ccccc2oc1=O (configuration not stated)	93
46	O=C(NC1(O)C(=O)c2ccccc2C1=O)c1ccc(C(F)(F)F)cc1	99
47	O=C1[C@H]2CCCC[C@H]2C(=O)N1CCCCN1CCN(c2nsc3ccccc23)CC1	98
48	COC(=O)c1ccc(COc2ccc(F)cc2)cc1	102
49	CCC(=O)NCCSc1ncc(-c2ccccc2)[nH]1	104
50	COc1ccc(CCNC(=O)Nc2ccccc2C)cc1OC	91
51	CN(C)S(=O)(=O)Cc1ccccc1Cl	96
52	Cc1ccc(C(=O)CSc2nnc3[nH]c(=O)c(C)nn23)cc1	95
53	NS(=O)(=O)c1ccc(C(=O)Nc2cccc(-c3ccc4nncn4n3)c2)cc1	91
54	Cc1nc2sc(C(c3ccc(Cl)c(Cl)c3)N3CCCC3)c(O)n2n1 (configuration not stated)	91
55	CN(Cc1ccccc1)C1CCN(CCc2ccccc2)CC1	96
56	CCOC(=O)C1Sc2nnc(C)n2NC1c1ccc2c(c1)OCO2 (configuration not stated)	91

Following part.
nr	molecule	RVFV N-RNA inh
57	COc1ccc(Oc2nccnc2C#N)cc1	91
58	O=C1CCCC2=C1C(c1ccc3c(c1)OCO3)c1c(ccc3ncccc13)N2 (configuration not stated)	93
59	COc1ccc(OC)c(NC(=O)c2oc3ccccc3c2NC(=O)CC(C)(C)C)c1	97
60	Cc1cc(=O)oc2ccc(OC(=O)CC(C)C)cc12	100
61	Cc1ccc(C(=O)CC2OC(=O)c3ccccc32)o1 (configuration not stated)	90
62	O=C(Nc1cccc(C(F)(F)F)c1)c1cccc(S(=O)(=O)N2CCCC2)c1	97
63	O=C(Nc1ccccc1-c1nc2ccccc2s1)C1CCCN1S(=O)(=O)c1cccs1 (configuration not stated)	95
64	Cc1cc(=O)[nH]c(Nc2cccc(Br)c2)n1	91
65	c1ccc(CN2CCC(c3nc4ccccc4[nH]3)CC2)cc1	99
66	N#CCCN(Cc1ccco1)C(=O)Nc1ccccc1	102
67	c1nc2nc(Nc3ccc(N4CCOCC4)cc3)nc(NC3CCCCC3)c2[nH]1	97
68	COc1ccc(N2CCN(CCN)CC2)cc1	87
69	CSc1ccccc1NC(=O)C1COc2ccccc2O1 (configuration not stated)	88
70	O=C(Nc1ccc(-c2nc3ccccc3c(=O)o2)cc1)C1CC1	99
71	NC(=O)CC1C(=O)N(c2ccc(Cl)cc2)C(=S)N1Cc1cccnc1 (configuration not stated)	89
72	COCn1c(=O)[nH]c2ccccc21	91
73	COC(=O)c1ccccc1Oc1ccccc1OC	89
74	CCN(CC)c1nc(=S)nc(NC(C)(C)C)[nH]1	96
75	Cc1cc(NC(=O)CSC2=NN3CCCC(=O)N=C3S2)no1	93
76	N#CC(C#N)=CN1CCC(C(=O)c2ccccc2)CC1	92
77	COc1ccc(C(=O)ON=C2CSC(C)SC2)cc1 (configuration not stated)	89
78	Nc1nc(CCOc2ccc(F)cc2)cs1	101
79	CC(C)COC(=O)/C=C/c1ccccc1	93
80	COc1c(Cl)cc(C(=O)N2N=N2)cc1Cl	102
81	CCN(C)C(=O)Oc1cccc([C@H](C)N(C)C)c1	94
82	S=c1[nH]c2cc(Cl)c3cccnc3c2o1	108
83	O=C(CN1CCCCCCC1)N/N=C/c1cccs1	95
84	COc1ccc(S(=O)(=O)Nc2ccccc2CN(C)C/C=C/c2ccc(Cl)cc2)cc1	96
85	O=C(CSc1nnc(Cc2cc(=O)[nH]c(=O)[nH]2)n1-c1ccccc1)NCc1ccco1	101
86	Cc1[nH]c2ccccc2c(=O)c1Br	104
87	COc1cc(C=NCCN=Cc2ccc(O)c(OC)c2)ccc1O	91
88	CC(/C=C/c1ccco1)=N\NC(=O)Cc1cccc2ccccc12	101
89	O=C(CC(NCc1ccco1)C(=O)O)Nc1cccc(Cl)c1 (configuration not stated)	96
90	COC(=O)c1c(-c2c(Cl)cccc2Cl)noc1C(=O)N/N=C/c1ccccn1	113
91	CC1(C)Cc2c(c(N3CCOCC3)nc3sc4c(ncn5c(SCC(=O)NCc6ccco6)nnc45)c23)CO1	98
92	O=C(Nc1ccccc1)Nc1cccc(Cl)c1	98
93	O=S(=O)(c1cccc(C(F)(F)F)c1)N1CCCN(CCc2ccccc2)CC1	108
94	COc1ccccc1NC(=O)CSCC(N)=O	82
95	COc1ccc(Cl)cc1S(=O)(=O)N(C)CC(N)=O	100
96	C=C1CC[C@H](O)C/C1=C/C=C1\CCC[C@]2(C)[C@@H]([C@H](C)CCCC(C)(C)O)CC[C@@H]12	102
97	c1cnc2c(OCc3nc4ccccc4[nH]3)cccc2c1	90
98	COc1cccc(Nc2nc(C3(C)CC4(CC(C)OC4=O)C(=O)O3)cs2)c1 (configuration not stated)	97
99	N#CCn1ccccc1=O	93
100	COC(CNS(=O)(=O)c1cn(C)c(=O)n(C)c1=O)OC	108
101	Cc1ccc(C(c2sc3ncnn3c2O)N2CCN(CCO)CC2)cc1 (configuration not stated)	91
102	O=C(N/N=C/c1ccc(N2CCCCC2)o1)c1ccco1	94
103	O=[N+]([O-])c1ccc2nc(N3CCNCC3)ccc2c1	97
104	O=C1CC2NCCc3cccc1c32 (configuration not stated)	93
105	CN(CC12CC3CC(CC(C3)C1)C2)C(=O)c1ccco1	89
106	Cc1cnc(-c2ccc(Br)cc2)nc1	83
107	CC(C)(O)C#Cc1ccc(C#N)cc1	92
108	Cc1ccc(C2=NNC(=O)C(c3cn(CCC#N)c4ccccc34)C2)cc1 (configuration not stated)	96
109	C=CCn1c(CNC(=O)c2ccc(OC)c(OC)c2)nnc1SCC(=O)Nc1nc(C)cs1	92
110	Cc1nc2c(OCc3ccccc3)cccn2c1CC#N	99
111	COC(=O)c1sc(NC(=S)Nc2ccn(C)n2)c(C(=O)OC)c1C	97
112	CC(C)NC(=S)N1CCN(Cc2c(Cl)cccc2Cl)CC1	108

Arranged by SMILES length (highest first): part of the list above
nr	molecule	RVFV N-RNA inh
96	C=C1CC[C@H](O)C/C1=C/C=C1\CCC[C@]2(C)[C@@H]([C@H](C)CCCC(C)(C)O)CC[C@@H]12	102
91	CC1(C)Cc2c(c(N3CCOCC3)nc3sc4c(ncn5c(SCC(=O)NCc6ccco6)nnc45)c23)CO1	98
109	C=CCn1c(CNC(=O)c2ccc(OC)c(OC)c2)nnc1SCC(=O)Nc1nc(C)cs1	92
98	COc1cccc(Nc2nc(C3(C)CC4(CC(C)OC4=O)C(=O)O3)cs2)c1 (configuration not stated)	97
93	O=S(=O)(c1cccc(C(F)(F)F)c1)N1CCCN(CCc2ccccc2)CC1	108
108	Cc1ccc(C2=NNC(=O)C(c3cn(CCC#N)c4ccccc34)C2)cc1 (configuration not stated)	96
111	COC(=O)c1sc(NC(=S)Nc2ccn(C)n2)c(C(=O)OC)c1C	97
101	Cc1ccc(C(c2sc3ncnn3c2O)N2CCN(CCO)CC2)cc1 (configuration not stated)	91
100	COC(CNS(=O)(=O)c1cn(C)c(=O)n(C)c1=O)OC	108
105	CN(CC12CC3CC(CC(C3)C1)C2)C(=O)c1ccco1	89
103	O=[N+]([O-])c1ccc2nc(N3CCNCC3)ccc2c1	97
102	O=C(N/N=C/c1ccc(N2CCCCC2)o1)c1ccco1	94
97	c1cnc2c(OCc3nc4ccccc4[nH]3)cccc2c1	90
110	Cc1nc2c(OCc3ccccc3)cccn2c1CC#N	99
92	O=C(Nc1ccccc1)Nc1cccc(Cl)c1	98
94	COc1ccccc1NC(=O)CSCC(N)=O	82
107	CC(C)(O)C#Cc1ccc(C#N)cc1	92
104	O=C1CC2NCCc3cccc1c32 (configuration not stated)	93
99	N#CCn1ccccc1=O	93

Further results
nr	molecule	RVFV N-RNA inh
113	CCN(CC)CC(=O)Nc1c(C#N)cnn1-c1ccccc1	83
114	COc1ccc(CC(=O)NCCn2ccc3ccccc32)cc1	105
115	CCc1[nH]nc2c1C(c1cc(OC)c(OC(C)=O)c(OC)c1)C(C#N)=C(N)O2 (configuration not stated)	96
116	CCc1c(O)nc(SCC(=O)Nc2nnc(SCc3ccccc3)s2)[nH]c1=O	91
117	FC(F)(F)c1ccc(NCc2ccco2)nc1	100
118	Cc1sc2nc[nH]c(=S)c2c1C	95
119	CC1CCCCN1C(=S)NC1CCCC1 (configuration not stated)	89
120	CC1C(=O)N2CCCc3cc(S(=O)(=O)NCc4ccc(F)cc4)cc1c32 (configuration not stated)	97
121	Cc1ccc(S(=O)(=O)NNC2CS(=O)(=O)c3ccccc32)cc1 (configuration not stated)	92
122	C[C@@H]1CC[C@H]2[C@@H](C)C(=O)O[C@@H]3O[C@@]4(C)CC[C@@H]1[C@]32OO4	96
123	CCS(=O)(=O)c1ccccc1C(=O)Nc1sccc1C(=O)NC	92
124	CCC(C)[C@H]1O[C@]2(C=C[C@@H]1C)C[C@@H]1C[C@@H](C/C=C(\C)[C@@H](OC3C[C@H](OC)C(O[C@H]4C[C@H](OC)[C@@H](NC(C)=O)[C@H](C)O4)[C@H](C)O3)[C@@H](C)/C=C/C=C3\CO[C@@H]4[C@H](O)C(C)=C[C@@H](C(=O)O1)[C@]34O)O2 (some centres not stated)	98
125	COC(=O)C1C(c2ccc(Cl)cc2)C(C(=O)OC)S(=O)(=O)CS1(=O)=O (configuration not stated)	91
126	CCS(=O)(=O)c1ccc(O)c(NC(=O)CC(C)(C)CC(=O)O)c1	99
127	O=C(NCC1CCCO1)C1CCN(Cc2ccccc2O)CC1 (configuration not stated)	96
128	O=C(Oc1ccccc1Cl)C1CCCCC1	97
129	O=C(NC(C(=O)N1CCOCC1)C12CC3CC(CC(C3)C1)C2)C1CCCCC1 (configuration not stated)	100
130	O=C(Cc1ccccc1)CC1(O)C(=O)Nc2ccccc21 (configuration not stated)	94
131	N#CCCn1nc(Nc2ccccc2)n(-c2ccccc2)c1=S	100
132	O=C(NCc1ccco1)NCC(F)(F)F	100
133	C/C(=C\c1ccccc1)CN(C)C1CCN(C)CC1	101

Screens: PubChem BioAssay, ICCB-Longwood Screening Facility, Harvard Medical School
